# Bead autofluor – counter-screen for toxin protease inhibitors: compound fluorescence; compound autofluorescence counterscreen, microsphere flow cytometry; stronger effect = higher value; fluorescence intensity (concentration not given with the values); 3.1% of 360,000 active; AID 624483;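 active = at least 3 SD above the mean of all compounds, about 16000 in these data; inconclusive = too few beads counted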;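 also: 100 nL of 1 mM stock went into each well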
# Sa RN4220 lethal – S. aureus RN4220 growth inhibition. 0.33% of 330,000 active. OD600, 16 h. inhibition, % (no concentration beside the values);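 active = z-score of -3 or lower and OD600 up to 0.18 on both plates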;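 also: plate controls were untreated cells for no effect and reference antibiotic for full effect; stock transfer was 100 nL into about 80 µL; one replicate is shown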
# PrP UTR inh – suppresses PrP 5' UTR mRNA reporter expression; cell-based PrP 5' UTR mRNA reporter, plate reader; inhibition, % (no concentration beside the values); 0.35% of 340,000 active; AID 488862;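 active = every replicate at 50% or more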;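 also: 0 = median of the neutral control wells; tested in H4 reporter cells; numbers are from one replicate; inactives centre near -14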
# Sa ugtP lethal – growth inhibition of S. aureus ugtP deletion strain. 0.54% of 330,000 active. growth inhibition, % (concentration not given with the values). AID 1259309. S. aureus RN4220 ugtP deletion, OD600 growth, 16 h; some inactives read as strong as hits;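 active = z-score under -3 and OD600 up to 0.15 on both plates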;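 also: plate controls were untreated wells for no effect and antibiotic for full effect; wells of about 80 µL received 100 nL stock; the first replicate is given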
# BJeLR lethal – BJeLR cell viability loss | BJeLR (HRASV12) viability, CellTiter-Glo ATP luminescence, 48 h; reference of the scale not given here | inhibition, % (test concentration not listed) | 0.17% of 300,000 active;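 active = replicate mean above 50%; inconclusive = above 50% but judged a plate artefact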;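 also: 50 nL library stock added to about 25 µL; numbers are from one replicate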
# Mtb hypoxia rep – inhibitors of hypoxia-regulated fluorescent reporter in Mycobacterium tuberculosis; M. tuberculosis hypoxia-regulated fluorescent reporter, fluorescence; fluorescence inhibition, % (concentration not given with the values); 0.1% of 300,000 active;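 active = 35 to 45% if threefold the growth effect, above 45% if 1.5-fold the growth effect; inactive = the rest, general growth blockers included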;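 also: wells of about 50 µL received 100 nL stock; 0% = vehicle wells and 100% = reference inhibitor wells; whole bacteria with a GFP reporter of the hypoxia response; strong numbers were not always called active; many hits fall short of the cut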
# Mtb hypoxia rep growth – recorded beside Mtb hypoxia rep, whose call it bears; growth inhibition, %; measured here: M. tuberculosis growth (absorbance);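 0% = vehicle and 100% = reference antibiotic; read after six days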
# Starred values were filed as active, the others as inactive; ? = inconclusive; nt = no result given; & = joins results of further samples.
entry	mol	Sa RN4220 lethal	PrP UTR inh	BJeLR lethal	Mtb hypoxia rep	Bead autofluor	Sa ugtP lethal	Mtb hypoxia rep growth
1	O=C(Nc1nccs1)C1Cc2ccccc2CN1S(=O)(=O)c1ccc(F)cc1 (centres undefined)	4.5	-32	-9	5	nt	-8	2
2	CCOC(=O)/C(C(N)=NCCO)=C(/O)c1ccccc1	3.5	-3	-8	5	17067*	11	1
3	O=C(NN=Cc1ccoc1)c1ccco1	2.9	nt	nt	-9	nt	0	0
4	CCCOc1ccc(/C=C/C(=O)Nc2ccc([N+](=O)[O-])cc2C)cc1OC	9.1	-15	-8	-4	22086*	0	6
5	Cc1cccc(N/N=C2/COC(C)(C)CC2=O)c1	nt	-79	4	nt	2538	nt	nt
6	COc1ccc(N(C(=O)c2snc(C(N)=O)c2N)C(C(=O)NC2CCCC2)c2ccco2)cc1 (centres undefined)	-0.2	-24	1	-1	3686	6	7
7	Cc1ccc(NC(=O)Nc2ccc(F)cc2)cc1Cl	-6.9	-66	9	-6	2563	-26	4
8	COc1ccc(-c2ccc(-c3noc(-c4ccccc4OC)n3)c(OC)n2)cc1	24	-21	14	0	3286	3	6
9	Cc1nc(-c2ccc(S(=O)(=O)Nc3cc(S(=O)(=O)N(C)C)ccc3C)s2)cs1	5.9	-18	1	-1	5532	0	-9
10	COc1cc(C2SCC(=O)N2CCN2CCCCC2)ccc1O (centres undefined)	4.3	-16	7	-1	2168	-3	-2
11	CCOc1ccc(NC(=O)CSc2nc3nc4c(cc3c(=O)n2CC)COC(C)(C)C4)cc1	1.3	nt	-4	9	nt	0	1
12	CCCn1nc(C(=O)NNC(=O)CSCC(=O)Nc2cc(C)on2)c2ccccc2c1=O	-2.9	-8	0	-13	4687	0	-5
13	CC(=NNC(=O)CSc1nc(C)[nH]c1[N+](=O)[O-])c1ccc(F)cc1	0.1	nt	nt	3	nt	8	9
14	O=C(N1CCN(c2cccc(Cl)c2)CC1)C1(S(=O)(=O)c2ccc(Cl)cc2)CC1	2.5	-89	-11	-1	3795	-14	1
15	CCCCc1nc2cc(C(=O)NC3CCOC(C)(C)C3)ccc2o1 (centres undefined)	3.3	-6	-1	7	nt	2	7
16	CCC(=O)C(CCN1CCOCC1)(c1ccccc1)c1ccccc1	5.3	-27	-5	6	6431	2	12
17	O=C(NCCC1=CCCCC1)c1ccc([N+](=O)[O-])cc1	0.5	-101	-1	nt	2541	3	nt
18	CCNC(=S)N/N=C/c1ccc(-c2ccccc2)o1	nt	-39	9	nt	2605	nt	nt
19	CC(C)CC(=O)N1CCN(Cc2ccccc2Br)CC1	1.6	-18	-8	13	3949	9	17
20	O=C(Nc1ccccc1C(=O)O)c1ccc(Br)o1	6.6	-3	-10	5	5344	-7	12
21	COCOc1ccc(-c2oc3c(C/C=C(\C)CCC=C(C)C)ccc(O)c3c(=O)c2OCOC)c(OCOC)c1	6.1	nt	-2	nt	4194	-9	nt
22	CCc1nnc(NC(=O)c2ccc(COc3ccccc3C)o2)s1	4.0	-14	8	14	3861	1	-2
23	COc1ccc(CNC(=O)COC(=O)[C@H](Cc2c[nH]c3ccccc23)NC(=O)c2cccs2)cc1	5.8	-3	10	13	9243	-3	5
24	Cc1ccc(C(=O)Nc2ccc(C)c(S(=O)(=O)N(C)C)c2)s1	5.9	-50	-1	4	1974	-11	8
25	Cn1c(=O)oc2cc(S(=O)(=O)NCCC(=O)N3CCc4ccccc4C3)ccc21	-1.2	-12	-21	-5	7866	-4	7
26	CCOC(=O)c1c(C)n2c3c(cc(C)cc13)CCC2	0.4	-93	-9	1	2189	1	-2
27	CC(=O)NN1C(=O)c2ccccc2NC1c1ccccc1 (centres undefined)	1.9	-17	-7	-3	3693	3	-2
28	O=C(c1ccc(Oc2ccc(C(F)(F)F)cn2)cc1)N1CCN(c2ccccc2)CC1	0.4	nt	3	-3	11080	3	4
29	COCC(C)NCc1cccc(OC)c1OC (centres undefined)	2.9	4	-5	-5	3842	-5	10
30	CN(CCc1ccccn1)C1CCCN(S(=O)(=O)c2ccccc2)C1 (centres undefined)	1.8	3	-5	2	5682	1	8

# Retrieved by compound from above, 3 records:
entry	mol	Sa RN4220 lethal	PrP UTR inh	BJeLR lethal	Mtb hypoxia rep	Bead autofluor	Sa ugtP lethal	Mtb hypoxia rep growth
30	CN(CCc1ccccn1)C1CCCN(S(=O)(=O)c2ccccc2)C1 (centres undefined)	1.8	3	-5	2	5682	1	8
21	COCOc1ccc(-c2oc3c(C/C=C(\C)CCC=C(C)C)ccc(O)c3c(=O)c2OCOC)c(OCOC)c1	6.1	nt	-2	nt	4194	-9	nt
27	CC(=O)NN1C(=O)c2ccccc2NC1c1ccccc1 (centres undefined)	1.9	-17	-7	-3	3693	3	-2

# Following part:
entry	mol	Sa RN4220 lethal	PrP UTR inh	BJeLR lethal	Mtb hypoxia rep	Bead autofluor	Sa ugtP lethal	Mtb hypoxia rep growth
31	COc1ccccc1Nc1nc(N)nc(CN2CC(C)CC(C)C2)n1 (centres undefined)	3.4	-27	-5	-2	4494	-1	20
32	Cc1ccc(NC(=O)Nc2ccon2)cc1Cl	-1.0	-37	3	11	5569	-8	3
33	O=c1[nH]c(=S)[nH]c(O)c1N=Nc1ccc2c(c1)OCCO2	3.5	-11	7	20	4438	2	22
34	COC(=O)c1ccc(COC(=O)CNC(=O)c2ccco2)cc1	0.3	-11	5	nt	2783	-2	nt
35	O=C(CN(c1ccc(F)cc1)S(=O)(=O)c1ccc2c(c1)OCCO2)NCc1ccccc1	0.9	-8	-2	7	4288	3	2
36	CCNC(=O)OCc1cn(-c2ccc(Cl)cc2)nn1	2.1	-23	-3	3	5213	2	-7
37	CN1C(C(=O)NCCc2cccs2)CC2Cn3c(nc4ccccc43)C21 (centres undefined)	4.2	-1	-7	-7	3940	1	-13
38	COc1ccc2c(c1)C(O)C(CO)C(C(=O)O)C2 (centres undefined)	3.8	-18	nt	23	3002	7	9
39	CCc1nnc(SCC(=O)Nc2ccc(N3CCN(S(C)(=O)=O)CC3)cc2)o1	1.3	-16	1	-3	3680	1	2
40	COc1cc(CCC(=O)NC2(C)CCS(=O)(=O)C2)cc(OC)c1OC (centres undefined)	2.3	-18	nt	-5	?	3	3
41	CC=CC(=O)N1CC2(CC(c3cccc(NC(=O)C(C)=CC)c3)=NO2)CC1C(N)=O (centres undefined)	0.1	nt	nt	0	nt	-1	-1
42	CC(=NNC(=O)CNc1cccc(C(F)(F)F)c1)c1cccc(Br)c1	-7.4	nt	nt	6	nt	-7	5
43	Cc1cccc(NC(=O)CNC(=O)CNC(=O)Cc2ccccc2)c1	0.6	-19	11	3	5068	9	1
44	COc1ccc(C(C)=NNc2cccc(C(=O)O)c2)cc1OC	5.2	nt	nt	12	nt	2	-3
45	C/C(=N\NC(=O)C(=O)N/N=C(\C)c1cccc(O)c1)c1cccc(O)c1	nt	-22	3	nt	3957	nt	nt
46	COC(=O)[C@@H]1[C@H]2C[C@H]3c4[nH]c5ccccc5c4CCN3C[C@@H]2CC[C@@H]1O	nt	-23	2&-2	nt	5768	nt	nt
47	CCOc1ccc(S(=O)(=O)N2CCN(CCNS(=O)(=O)c3ccc(C)cc3)CC2)cc1	0.4	-17	nt	-2	5575	3	5
48	COc1cccc(N=Nc2ccc3cccnc3c2O)c1	32	2	44	14	2701	2	4
49	Cc1ccc2nc3c(cc2c1)c(NC(=O)c1ccccn1)nn3CC(C)C	31	-17	1	2	?	15	4
50	O=C(NCC(O)c1ccc([N+](=O)[O-])cc1)C1=COCCO1 (centres undefined)	2.9	-4	nt	7	4406	8	3
51	O=C(COC(=O)/C=C/c1ccccc1[N+](=O)[O-])NCC1CCCO1 (centres undefined)	3.6	-18	3	2	4301	1	-1
52	COc1ccc(CCNC(=O)C2CCCN(S(=O)(=O)N3CC(C)CC(C)C3)C2)cc1OC (centres undefined)	-0.4	-14	-4	4	5563	2	5
53	Cn1nnc2cc(C(=O)Nc3ccc4ccccc4c3)ccc21	-1.9	-102	-11	3	2288	7	6
54	O=C(Nc1ccsc1C(=O)NC1CC1)c1ccccc1	9.8	-16	10	7	nt	-6	8
55	Cc1ccc(N=Cc2cc3c(cc2O)OC(N)=C(C#N)C3c2ccccc2)cc1 (centres undefined)	16	0	8	3	2485	0	1
56	Cc1ccc(S(=O)(=O)NCC(=O)N/N=C/c2ccc(Cl)cc2Cl)cc1	nt	-26	-1	nt	9729	nt	nt
57	CC(=O)NC1CCN(CC(=O)Nc2nccs2)CC1	0.8	-19	2	5	3455	10	4
58	CCCCn1c(=O)[nH]c2nc3cc(NC(C)=O)ccc3nc2c1=O	-0.9	-14	-7	20	4073	5	7
59	OCCN1CCN(CC/C=C2/c3ccccc3Sc3ccc(C(F)(F)F)cc32)CC1	nt	-9	-6	nt	5506	nt	nt
60	CCCCn1c(SCc2cccnc2)nc2c1c(=O)n(C)c(=O)n2C	1.4	nt	5	4	10075	-3	4
61	CCCCOC(=O)C(C)Nc1n[nH]c(=O)[nH]c1=O (centres undefined)	-0.1	-25	-2	nt	4230	-7	nt
62	COc1ccc(N2CCN(C(=O)c3ccc(C(C)(C)C)cc3)CC2)cc1	5.4	4	7	nt	2118	4	nt
63	COc1cccc(C2Nc3cc(Cl)c(S(N)(=O)=O)cc3S(=O)(=O)N2)c1 (centres undefined)	3.1	-20	-6	nt	4251	3	nt
64	O=C(CC1C(=O)NCCN1C(=O)Nc1ccc(F)cc1F)Nc1cc(Cl)ccc1Cl (centres undefined)	-1.7	-30	-5	0	6128	-5	1
65	COC(=O)c1ccc(CN2C(=O)NC3(CCCCC3)C2=O)cc1	-0.3	-66	-10	3	4521	3	11
66	O=C1CCCc2c1cc(C(=O)NCc1ccco1)c(=O)n2-c1ccc(Cl)cc1	2.1	-31	-1	6	10685	6	2
67	NC1=NC[C@@H](Cc2ccc(O)cc2)N1CCCCC1CCCCC1	nt	-19	12	nt	4114	nt	nt
68	Cc1csc(NC(=O)CSc2nnc(-c3ccc(S(=O)(=O)N4CCCC4)cc3)o2)n1	3.9	-13	-1	-5	10686	-21	-5
69	CC(C)NC(=O)N(C)CC1Oc2c(NC(=O)Nc3ccccc3)cccc2C(=O)N(C(C)CO)CC1C (centres undefined)	6.7	nt	nt	13	nt	12	11
70	CCC(C)N1C(=O)/C(=C\c2cnc(N(C)C)nc2)C(=O)NC1=S (centres undefined)	0.9	-6	-3	-15	5193	1	-5
71	COc1ccc(/C=C2\N=C3CCCCCN3C2=O)cc1OC	-1.6	-10	0	-3	10433	-10	5
72	CC(C)Cc1cc(C(C)(C)C)ccc1OC(=S)N(C)C	-4.0	-13	10	1	3873	83	-6
73	Nc1ccc2nc(SCC(=O)N3CCOCC3)sc2c1	3.5	-30	-2	-1	4851	3	0
74	CCC(=O)Nc1ccc(NC(=O)CSc2nnnn2CC)cc1C	4.9	-3	nt	nt	4679	6	nt
75	COCCn1nnnc1C(c1ccc(OC)cc1)N1CCN(C(=O)c2ccco2)CC1 (centres undefined)	0.6	-24	-12	2	4954	8	2
76	Cc1c(C=NNC(=O)c2c[nH]c3ccccc23)cnn1C	0.0	nt	nt	4	nt	10	10
77	Cc1cc(C)nc(NCCO)n1	4.0	-5	-4	5	4373	4	-3
78	Cc1ccc(C)c(NC(=O)/C(C#N)=C/c2cn(CC(=O)NCc3ccco3)c3ccccc23)c1	4.1	-17	7	24	2210	-1	12
79	NC(=O)SCC(=O)Nc1ccccc1C(=O)O	3.4	-16	7	7	3741	11	3
80	O=C(COC(=O)c1ccc(Cl)nc1)NCCc1ccccc1	2.8	-26	nt	12	5464	6	7
81	CC12CCC(c3c(C(=O)Nc4nccs4)nn(-c4ccccc4)c31)C2(C)C (centres undefined)	5.1	4	-5	-5	12646	-33	2
82	Cc1nc(C(=O)NNC(=O)c2ccc(Cl)cc2)c(C(F)(F)F)o1	13	-12	17	6	3945	0	5
83	CC(C)(C)c1ccc(-c2nc(C=O)c3ccccn23)cc1	nt	-33	3	nt	18863*	nt	nt
84	O=C(c1ccsc1)N1CCCC(Nc2cccc(F)c2)C1 (centres undefined)	0.4	-29	-7	6	6301	0	6
85	O=C(CSc1nnc2c(n1)[nH]c1ccc(F)cc12)N1CCOCC1	3.7	-11	-1	5	4123	1	-6
86	COc1ccc(CSc2nnnn2-c2ccccc2)cc1	-8.7	-22	0	23	3434	6	17

# High-throughput results: PubChem BioAssay, several laboratories
